Compound activity from PubChem BioAssay.
SmPrx2 inh: Schistosoma mansoni Prx2 inhibition; Potency, µM; AID 448; S. mansoni Prx2 activity coupled to TGR/GSH (TGR is thioredoxin glutathione reductase), NADPH fluorescence loss, qHTS; some inactives read as strong as hits; actives 0.07% (n = 65,000); active means full or partial inhibition curve with a strong effect at the top dose; inconclusive means weaker partial or single-point curve; inactive means no accepted curve; also: series up to 57 µM; many of its hits are not listed in these tables
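Coupled assay in which S. mansoni TGR passes NADPH reducing equivalents via glutathione to Prx2, which reduces H2O2. Compounds were preincubated 15 min at room temperature with 25 nM TGR/50 nM Prx2 mix. Kinetic NADPH fluorescence loss (ex 365/em 450 nm) was monitored.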
Anthrax LT inh: inhibitors of anthrax lethal toxin internalization; Cells, anthrax lethal toxin internalization, FRET ratio (460/530); Potency, µM (titrated, usually from 40 µM), for the others: at the highest dose activity change, negative = inhibition, usual class: inhibitors; actives 0.67% (n = 70,000); active = well fitted falling ratio curve with the 530 nm signal flat; inconclusive = other ratio curves, or a change in one channel alone; inactive = flat curves in the ratio and both channels; the % refers to the ratio; also: % is scaled to controls: 0 for no effect and ±100 for the full control effect; nearly all actives have a fitted effect of over 50% in size; tested in ME-180 cells; beta-lactamase reporter
* marks the source's active call; other numbers are inactive results; ? = inconclusive; . = not tested or not shown; & = joins results of further samples; [ ] = another dose, or the depositor's remark. Potency is read from the fitted curve at half-maximal effect.

SMILES	SmPrx2 inh	Anthrax LT inh
O=C(O)C1C2C=CC3(CN(Cc4ccco4)C(=O)C13)O2 (centres undefined)	>57	-5%
Nc1nonc1-c1nc2ccccc2n1CC(=O)N1CCCCC1	>57	-16%
Cc1ccccc1CN1CCN(S(=O)(=O)c2ccc(F)cc2)CC1	>57	6%
CC(=O)Nc1cccc(NC(=O)C2CCCN2C(=O)Nc2ccc(Cl)cc2)c1 (centres undefined)	>57	-2%
Cc1ccc(-c2noc(CCC(=O)Nc3ccc(C)cn3)n2)cc1	>57	1%
Cc1ccc(S(=O)(=O)Nc2cc(C(=O)NCCN(C)C)ccc2N2CCCCC2)cc1	>57	-6%
CCOC(=O)c1cc2c(=O)n3ccccc3nc2n(C(C)C)c1=NC(=O)c1ccncc1	>57	29%
O=C(Nc1cccc(Cl)c1)N(CCN1CCOCC1)Cc1cccc(Cl)c1	>57	?
COCCOC(=O)C1=C(C)NC2=C(C(=O)CC(C)(C)C2)C1c1ccc(N(C)C)cc1 (centres undefined)	.	0%
O=C(CCSc1nc2ccccc2o1)N1CCOCC1	>57	6%
C=CCN(C(=O)CCC(=O)Nc1cc(C)on1)C(C(=O)NC(C)(C)C)c1cccc(OC)c1OC (centres undefined)	>57	6%
Cn1ncc2c(Nc3ccc4ccccc4c3)ncnc21	>57	-12%
O=C(Cc1cccs1)NCc1ccc2c(c1)OCO2	>57	7%
CCOC(=O)C1CCCCC12C(C#N)=C(N)Oc1n[nH]c(C)c12 (centres undefined)	>57	-11%
CC[N+](CC)(CCO)CCCN1C(=O)C2CC=C(Cl)CC2C1=O (centres undefined)	>57	0%
O=C(O)C1Sc2[nH]c(=O)sc2C2c3cc(Cl)ccc3OC(=O)C12 (centres undefined)	>57	13%
Cc1cccc(NC(=O)c2cc(-c3ccco3)nc3ccccc23)n1	>57	-27%
O=C(O)C1CCCCC1C(=O)Nc1ccccc1Nc1ccccc1 (centres undefined)	.	-1%
O=C1CCCN1c1ccc(S(=O)(=O)N2CCN(c3ccccn3)CC2)cc1	>57	-3%
COc1ccc(N(CC(=O)Nc2cccc(OC)c2)S(=O)(=O)c2c(C)nn(C)c2C)cc1	>57	6%
COC(=O)CCC(NC(=O)OCc1ccccc1)C(=O)NC(CC(C)C)C(=O)OC (centres undefined)	>57	?
CCN(CCCNC(=O)CCc1nc(-c2ccc(OC)cc2)no1)c1cccc(C)c1	>57	-7%
COCCN1Cc2cccc(C(=O)Nc3cccc(OC)c3)c2C1=O	>57	10%
CC(C)NC(=O)c1ccc(-c2ccccc2C(F)(F)F)o1	>57	-6%
Cc1cc(C(=O)CNCc2ccco2)c(C)n1-c1ccc(F)cc1	>57	-12%
COCc1nc2ccccc2n1Cc1ccc(Br)cc1	>57	?
CCOC(=O)C1=C(C)NC(=O)NC1c1ccc(OCC(=O)OC)c(OC)c1 (centres undefined)	>57	?
CCC(C)NC(=O)c1cnc2n(c1=O)CCS2 (centres undefined)	>57	7%
CCCCNC(=O)c1cc(-c2ccc(F)cc2)on1	>57	2%
Cc1cc(C(=O)Nc2ccc(S(=O)(=O)N3CCCC3)cc2)cs1	>57	-4%
CCOC(=O)c1c(N)n(CCOC(=O)c2cccs2)c2nc3ccccc3nc12	>57	?
CN1CCN(C(=O)c2cc3nc(-c4ccccc4)cc(C(F)(F)F)n3n2)CC1	>57	1%
COCC(=O)NC(C)c1nc2ccccc2[nH]1 (centres undefined)	>57	?
CC(C)C[C@@H](CC(=O)N[C@@H](CCCN)CC(=O)N[C@@H]1CCNC[C@H]1C(=O)N[C@H](CC(=O)N[C@@H](CCC(=O)O)CC(=O)O)Cc1c[nH]c2ccccc12)NC(=O)[C@@H]1CCCC[C@H]1N	>57	2%
CCC(=O)Nc1cccc(C(=O)c2ccccc2)c1	?	-3%
CCCN(CCC)CCNC(=O)C1CCN(Cc2nc(-c3ccc(Cl)cc3)oc2C)CC1	>57	?
CCCCNC(=O)c1cn(C)c2ccc(S(=O)(=O)N3CCOCC3)cc2c1=O	>57	9%
O=C1CC(C(F)(F)C(F)(F)C(F)(F)C(F)F)=Nc2ccccc2N1	>57	3%
CCc1ccc(S(=O)(=O)NCc2cn3ccsc3n2)s1	>57	-4%
COc1ccc(CCNC(=O)C(C)OC(=O)c2ccco2)cc1OC (centres undefined)	>57	1%
CO[C@H]1COC(=O)[C@H](C)COC(=O)[C@@H](Cc2ccccc2)NC(=O)C/C=C\[C@H]1C	.	-5%[8 µM]
CCSc1nnc(NC(=O)c2ccccc2)s1	.	5%
Cc1cc(C(F)(F)F)nn1CC(=O)Nc1cccnc1	>57	-6%
C(=C/c1ccccc1)/CN1CCN(CCOC(c2ccccc2)c2ccccc2)CC1	>57	?
NC(=O)CCCCn1ccc(NC(N)=NCC(F)(F)F)n1	>57	-7%
CC(C)OCCCNC(=O)Cn1nc(-c2ccccc2)ccc1=O	>57	-2%
Cc1c(C(=O)OCc2ccccc2)nnn1-c1nonc1N	?	7%
CCOc1cc(N2CCOCC2)c(OCC)cc1NC1=NCCCCC1	>57	-2%
O=c1[nH]c(=O)n(C2CCCCCC2)c(O)c1C=NCc1ccc(F)cc1	>57	?
CCO/C=N/c1c(C#N)c(CC#N)nn1-c1ccccc1	>57	-17%
COCCCn1c(SCC(=O)Nc2ccc(C(C)=O)cc2)nc2ccccc2c1=O	>57	11%
CC1=[N+]([O-])C2(N)CCc3nonc3C2(O)C1 (centres undefined)	>57	-11%
Cc1ccc(S(N)(=O)=O)cc1	.	-12%
CCOc1ccc(NS(=O)(=O)c2ccc3[nH]c(=O)oc3c2)cc1	>57	5%
CC(=O)c1ccc(NC(=O)CCc2c(C)nc3ncnn3c2C)cc1	>57	0%
Cc1noc(C)c1C(=O)OCC(=O)/C=C1\N(C)c2ccccc2C1(C)C	>57	-5%
COC(=O)[C@@H]1CC[C@H](C)[C@@H](c2ccc(C)cc2)N1C(=O)c1ccc(/C=N\O[C@@H](C)CN2CCCCc3nc(C)c(C)cc32)cc1	.	2%[8 µM]
O=C(OC(C(=O)NCc1ccc2c(c1)OCO2)c1ccccc1F)c1ccco1 (centres undefined)	>57	4%
Clc1cccc(Nc2nnc(-c3ccccc3)c3ccccc23)c1	>26	?
O=C(Nc1ccccc1)c1cccnc1Nc1ccccc1	>57	?

Additional entries follow.
SMILES	SmPrx2 inh	Anthrax LT inh
COc1ccc(-c2nc3cnc(N4CCNCC4)nc3n(-c3ccccc3)c2=O)cc1	>11	?
Cc1nc2cnc(Oc3cccc(Cl)c3)nc2n(CCc2ccccc2)c1=O	>57	-9%
Clc1c(-c2nnc3n2CCCCC3)sc2ccccc12	>57	-3%
Cc1ccc(N2CC(C(=O)Oc3cccc(N4C(=O)CCC4=O)c3)CC2=O)cc1 (centres undefined)	>57	4%
Cc1ccc(N=c2oc3cc(O)ccc3cc2C(N)=O)cc1	>57	?
O=C(Nc1ccc(S(=O)(=O)Nc2ccc(Cl)cc2)cc1)C1CCCO1 (centres undefined)	>57	4%
Cn1c(SCc2ccccc2)nnc1-c1ccncc1	>57	-1%
COc1ccc(-c2nc(S(=O)(=O)c3ccc(C)cc3)c(N3CCCC3)o2)cc1	>57	0%
COc1ccc(C2NC(=O)CS2)cc1OC (centres undefined)	>57	-25%
CCc1nc(N)c(C#N)c(-c2ccccc2OC)c1C	>57	0%
Oc1ccc(Cc2cc(Cl)cc(Cl)c2O)cc1Cl	>57	-15%[8 µM]
O=NC1=C(c2c(O)[nH]c3ccccc23)CCCC1	.	0%
CCOc1ccc(OCC)c(NC(=O)CSc2nnc(-c3cccnc3)o2)c1	>57	-3%
O=C(CCNS(=O)(=O)c1cccc2nsnc12)Nc1ccc2c(c1)OCCO2	>57	?
Cc1ccc(S(=O)(=O)O)cc1C	.	-9%
Cn1c(=O)[nH]c(=O)c2c1nc(NCc1ccccc1)n2CC(O)c1ccccc1 (centres undefined)	>57	6%
CC(=O)N1CCC2(CC1)C(C#N)=C(N)Oc1n[nH]c(CSc3ccc(C)cc3)c12	>57	8%
CCC(=O)N1CCc2cc(S(=O)(=O)CCC(=O)Nc3ccc(C)c(F)c3)ccc21	>57	5%
O=C1CC(c2cccs2)Sc2nc3ccccc3n21 (centres undefined)	>57	-17%
O=C(c1cc(C(F)(F)F)cc(C(F)(F)F)c1)N1CCC[C@@]2(CCN(c3ccncc3)C2)C1	>57	?
CC(C)(C)NC[C@H](O)c1ccc(O)c(CO)c1	>57&>57&>57&>57	?
Nc1nc(N)c(Cn2ccnc2)c(=O)[nH]1	>57	-1%[8 µM]
CCNC(=O)NC(=O)CSc1ccc(NC(C)=O)cc1	>57	2%
c1cncc(-c2ccc3ncnc(NCCN4CCOCC4)c3c2)c1	>57	-8%
COc1cccc(NC(=O)Cn2c(=O)n(CCCC(=O)NCc3ccco3)c(=O)c3ccccc32)c1	>57	5%
CC(C)(C)c1ccc(SCC(N)=O)cc1	>57	-5%
CCOC(=O)CSc1nnc(CNc2ccc(Cl)cc2)n1-c1ccccc1	>57	-1%
Cc1ccc(CN(CC(=O)NCCc2ccccc2)C(=O)CCCC(=O)Nc2cc(C)on2)cc1	>57	4%
COc1ccc(-c2coc3cc(O)cc(O)c3c2=O)cc1	>11	-15%
CCCCN1Cc2cc(C(=O)c3cc(F)ccc3O)cnc2NC1=O	>57	?
CCc1cc2ccc(C)cc2nc1SCC(=O)N1CCN(C(=O)c2ccco2)CC1	>57	2%
CCCCN1C2CCCC1CC(NC(=O)c1ccc(OC)c(OC)c1)C2 (centres undefined)	>57	-3%
O=C(CSc1ncc(-c2ccc(F)cc2)[nH]1)Nc1cccc(O)c1	>57	7%
COc1ccccc1N1CCN(S(=O)(=O)c2ccc(Cl)s2)CC1	>57	?
CCOC(=O)c1sc(NC(NC(=O)c2ccco2)(C(=O)OC)C(F)(F)F)nc1C (centres undefined)	>57	4%
Cn1ccnc1SCc1cc(=O)[nH]c2ccccc12	>57	-2%
N#Cc1c(/N=C/c2ccco2)sc2c1CCC2	>57	-17%
O=C(Cc1cccs1)Nc1nnc(CCc2ccccc2)s1	>57	-3%
Brc1ccc(-c2nc(-c3ccncc3)no2)o1	>57	0%
CCc1cc2c(nc1CC)CCN(CC/C(C)=N/O[C@@H](C)c1cc(-c3c(C)cc(C)cc3C)no1)C2	.	-6%[8 µM]
O=C(c1ccccc1)N1CCCC(c2nc3c(nnn3Cc3ccccc3)c(=O)[nH]2)C1 (centres undefined)	>57	4%
CCOC(=O)C1(C)NC(c2ccc(N(C)C)cc2)C2C(=O)N(CC)C(=O)C21 (centres undefined)	>57	13%
O=C(Nc1nc2c(s1)CCCC2)c1ccc(Br)o1	.	-14%
Cc1ncc([N+](=O)[O-])n1C[C@H](O)CCl	>57	1%[3.58 µM]
COc1cccc(CC(=O)NCC2COc3ccccc3O2)c1OC (centres undefined)	>57	?
COC(=O)c1sc(=S)n(-c2ccccc2)c1N	>57	-4%
O=c1cc(CSc2nnnn2-c2ccccc2)[nH]c2[nH]n(-c3ccccc3)c(=O)c12	>57	11%
CCCCCSc1nc2c(cnn2-c2ccccc2)c(=O)[nH]1	>57	8%

Ordered by SMILES length (rising): part of the list above.
SMILES	SmPrx2 inh	Anthrax LT inh
N#Cc1c(/N=C/c2ccco2)sc2c1CCC2	>57	-17%
COC(=O)c1sc(=S)n(-c2ccccc2)c1N	>57	-4%
O=C(Cc1cccs1)Nc1nnc(CCc2ccccc2)s1	>57	-3%
COc1cccc(CC(=O)NCC2COc3ccccc3O2)c1OC (centres undefined)	>57	?
CCCCCSc1nc2c(cnn2-c2ccccc2)c(=O)[nH]1	>57	8%
O=C(c1ccccc1)N1CCCC(c2nc3c(nnn3Cc3ccccc3)c(=O)[nH]2)C1 (centres undefined)	>57	4%
O=c1cc(CSc2nnnn2-c2ccccc2)[nH]c2[nH]n(-c3ccccc3)c(=O)c12	>57	11%

New compounds follow:
SMILES	SmPrx2 inh	Anthrax LT inh
CCn1c(Sc2ccc(N)cc2Cl)nc2ccccc21	>57	-12%
CCCCNC(=O)C(NS(=O)(=O)c1cccc2nsnc12)c1ccccc1 (centres undefined)	>57	-3%
CCN(c1cccc(C)c1)S(=O)(=O)c1ccc2c(c1)CCN2C(C)=O	>57	0%
CC(Sc1cccc2cccc(C(=O)O)c12)C(=O)O (centres undefined)	>57	14%
O=c1c(-c2ccc(F)cc2)nc2cnc(N3CCOCC3)nc2n1-c1ccccc1	>11	?
O=C1C2CCN(CC2)C1(CO)CO	>57&>57	?
CSCCC(NS(=O)(=O)c1ccc2c(c1)oc(=O)n2C)C(=O)NC1CCCCC1 (centres undefined)	>57	2%
CN(C)c1ccc(-c2ccc3ncnc(NC4CC4)c3c2)cc1	>57	?
Cn1c(=O)cc(OCCCC(=O)Nc2ccccn2)c2ccccc21	>57	?
COc1ccccc1OCC(=O)OCC(=O)NCCN1C(=O)CSC1=O	>57	-9%
COCCn1c(SCC(=O)Nc2cccc(C)c2)nnc1C(C)C	>57	-10%
CCC(=O)N(Cc1ccco1)c1nc(-c2ccccc2)cs1	>57	-27%
COc1cc2nc(CN3C(=O)c4ccccc4C3=O)oc(=O)c2cc1OC	.	7%
COc1ccc(NS(=O)(=O)c2ccc(NC(C)=O)cc2)cc1OC	.	5%

Not all compounds are listed; rates above refer to the full screens.
